Screening data deposited in PubChem BioAssay by National Center for Advancing Translational Sciences (NCATS).
ClpP mod = qHTS Assay for Activators of ClpP; ATP-dependent Clp protease proteolytic subunit (Bacillus subtilis (strain 168)), P80244; Potency, µM (highest dose often 57.5 µM), without a hit: at the highest dose activity change, negative = active; purified B. subtilis ClpP, FRET peptide cleavage, 20 min; 340,000 compounds, 1.9% hits; active = well fitted falling curve with a large enough effect; inconclusive = small, poorly fitted or top-dose-only effect; inactive = no such curve, though single readings can be large or run the other way; further: potency means the concentration at half of the fitted maximal effect; the source files actives as falling curves though it sought activators and does not explain the sign; nearly all actives have a fitted effect of over 65% in size; many hits overshoot -100%
Target sequence (P80244 whole entry, looked up): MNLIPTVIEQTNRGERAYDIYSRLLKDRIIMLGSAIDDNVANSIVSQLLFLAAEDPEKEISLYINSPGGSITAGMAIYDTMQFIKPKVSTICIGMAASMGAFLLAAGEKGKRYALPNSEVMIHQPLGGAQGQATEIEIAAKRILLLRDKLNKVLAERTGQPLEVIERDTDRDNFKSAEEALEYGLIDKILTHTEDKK
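ClpP 10 microg/mL final, pH 8 Tris/KCl buffer with BSA, glycerol, Tween-20; compound pinned in; FRET-FV substrate; RT 20 min; Ex320/Em430; ΔFRET vs ADEP 5.8 microM, DMSO, no enzyme.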
TRPV1 PAM = potentiators of human vanilloid receptor 1 (TRPV1); 320,000 compounds, 0.02% hits; potentiation, % at 8.33 µM; TRPV1-expressing cells, Fluo-8 calcium influx, capsaicin EC20 potentiation; host cell line not named in the record; control for the full effect not named in the record; active means potentiation above 80%; inconclusive means 30% to 80%; inactive means below 30%; further: 0% is about no effect
Target sequence (Q8NER1 whole entry, looked up): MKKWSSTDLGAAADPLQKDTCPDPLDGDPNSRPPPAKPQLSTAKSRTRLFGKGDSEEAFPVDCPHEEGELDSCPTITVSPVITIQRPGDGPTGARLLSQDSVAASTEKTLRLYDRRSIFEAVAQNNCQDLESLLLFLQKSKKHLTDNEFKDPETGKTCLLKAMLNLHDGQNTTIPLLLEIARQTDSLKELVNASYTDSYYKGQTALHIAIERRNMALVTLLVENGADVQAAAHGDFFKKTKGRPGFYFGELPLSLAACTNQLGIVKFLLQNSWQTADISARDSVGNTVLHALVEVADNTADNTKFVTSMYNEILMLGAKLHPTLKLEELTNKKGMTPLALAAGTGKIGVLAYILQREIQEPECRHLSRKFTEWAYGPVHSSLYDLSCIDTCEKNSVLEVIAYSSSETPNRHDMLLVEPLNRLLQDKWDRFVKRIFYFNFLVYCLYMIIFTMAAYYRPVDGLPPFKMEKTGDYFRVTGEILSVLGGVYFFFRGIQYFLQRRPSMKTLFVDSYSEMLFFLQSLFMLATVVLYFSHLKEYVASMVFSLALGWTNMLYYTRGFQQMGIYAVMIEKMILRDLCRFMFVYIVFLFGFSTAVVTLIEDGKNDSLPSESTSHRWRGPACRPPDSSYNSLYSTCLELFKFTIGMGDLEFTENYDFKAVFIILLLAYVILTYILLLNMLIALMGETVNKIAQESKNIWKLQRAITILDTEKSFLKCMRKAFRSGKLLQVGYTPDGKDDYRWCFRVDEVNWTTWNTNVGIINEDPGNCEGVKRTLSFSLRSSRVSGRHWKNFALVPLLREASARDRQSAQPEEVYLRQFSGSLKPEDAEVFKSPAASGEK
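Cells expressing TRPV1 were dye-loaded with Fluo-8 and read kinetically: 10 s baseline, 3 min after compound (agonist portion), then 2 min after EC20 capsaicin (allosteric enhancer portion). Calcium-bound dye fluorescence at 480/520 nm.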
D2 PAM = human D2 receptor positive allosteric modulation; P14416; DiscoveRx D2 beta-arrestin cells, luminescence, 90 min; 100% = 57 uM dopamine signal; potentiation, % (test concentration not listed); 360,000 compounds, 0.23% hits; active = potentiation of 50% or more; inconclusive = 30% to 50%; inactive = 30% or less;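 further: compound concentration not given in the record; tested on top of an EC20 dose of dopamine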
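PathHunter beta-arrestin assay in DiscoveRx D2 cells. Compounds were added with an EC20 of dopamine (50 nM final) for 90 min at 37 deg C. Luminescence was read 1 h after detection reagent, with 57 uM dopamine as the EC100 control.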
gsp antag = gsp mutant antagonism | gsp-mutant cells, cAMP HTRF, 30 min; control for the full effect not named in the record | Potency, µM (top dose mostly 76.9 µM), for the others: at the highest dose activity change, negative = inhibition, hits mostly inhibitors | 340,000 compounds, 0.4% hits; active = falling curve of any shape with a large fitted effect; inconclusive = falling curve, mostly with a smaller effect; inactive = flat or rising curve; cell line not stated here;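 further: intracellular cAMP measured with PDE inhibitor Ro 20-1724 present during compound exposure; potency means the concentration at half of the fitted maximal effect; on the % scale 0 is the no-effect control and ±100 the full control effect; nearly all actives have a fitted effect of over 65% in size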
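Measurement of cellular cAMP by homogeneous time-resolved fluorescence following a 30 min compound exposure at 37C. The PDE inhibitor […] was present throughout; the assay buffer was DPBS with 0.05% BSA and 0.005% Tween 20.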
Sfp PPTase inh = Sfp phosphopantetheinyl transferase inhibition | Q9F4F7 | Potency, µM, inactives show max response, negative = inhibition, usual class: inhibitors | 310,000 compounds, 3.5% hits | Biochemical Sfp PPTase activity, qHTS; active means well fitted inhibition curve with a large enough effect; inconclusive means small, poorly fitted or top-dose-only effect, or another doubt; inactive means no such curve, though single readings can be large or run the other way;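 further: the enzyme is Sfp with the accession as filed and its product quenches rhodamine fluorescence; potency means the concentration at half of the fitted maximal effect; 0% = enzyme reaction without inhibitor and -100% = no enzyme wells; top concentration of the series not given in the record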
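Buffer: 50 mM Hepes-Na pH 7.6, 10 mM MgCl2, 0.01% Nonidet P-40, 0.01% BSA. Enzyme 15 nM, pre-exposed to compound 15 min; substrates then added and fluorescence change tracked over 30 min.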
Menin MLL FP FL = inhibitors of human menin-MLL interaction, wild-type MLL peptide; Fluorescence polarization, fluorescein-MLL peptide displacement from menin; FP activity change, % at 61.4 µM; 290,000 tested, under 10 active; AID 1766; inconclusive = falling polarisation curve, or a change in total fluorescence; inactive = total fluorescence flat and polarisation flat or rising; no compound was filed as active; the % refers to the polarisation; negative = inhibition;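 further: % of control where 0% means no effect; inhibitors lower the polarisation; unlabelled MLL peptide was the positive control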
gsp agonist = gsp mutant agonism. gsp mutant cells, cAMP HTRF, 30 min; control for the full effect not named in the record. Potency, µM (doses to about 76.9 µM), for inactives: top-dose activation (cAMP increase), usual class: activators. 340,000 compounds, 0.13% hits. AID 624287; active = well fitted activation curve with a large enough effect; inconclusive = small, poorly fitted or top-dose-only effect, or another doubt; inactive = no such curve, though single readings can be large or run the other way; cell line not stated here;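 further: phosphodiesterase inhibitor Ro 20-1724 added with compounds to block cAMP breakdown; potency means the concentration at half of the fitted maximal effect; nearly all actives have a fitted effect of over 60% in size; about a fifth of the inactives were tested at one dose only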
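Cells in DMEM/10% FBS with G418 were pretreated with compounds in DMSO plus […] (300 uM stock) for 30 min at 37C. cAMP was measured by HTRF (cAMP-d2 plus anti-cAMP antibody-K) after 30 min at room temperature.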
* marks the source's active call; other numbers are inactive results; ? = inconclusive; . = not tested or not shown; [ ] = dose if it differs, or a comment.

SMILES | ClpP mod | TRPV1 PAM | D2 PAM | gsp antag | Sfp PPTase inh | Menin MLL FP FL | gsp agonist
O=C(Nc1cnccn1)c1ccncc1 | 0.2% | -6 | -2 | 8% | -2% | 0.0 | 17%
Cc1ccsc1C(=O)OCC(=O)N1CCc2ccccc2C1 | . | -7 | 0 | -1% | -17% | -1.6 | 3%[15.4 µM]
CCOc1ccc(Br)cc1S(=O)(=O)Nc1ncn[nH]1 | . | 7 | 1 | 8% | 7% | -14 | 28%
Cc1cccc(-c2nc(Nc3ccc(N4CCOCC4)cc3)c3ccccc3n2)c1 | 0.4% | -4 | -7 | -19% | 2% | 8.3 | -24%
Cc1ccc(S(=O)(=O)N(C)C)cc1NC(=O)C(C)OC(=O)/C=C/c1cccs1 (stereo not given) | . | -22 | -8 | -5% | 11% | 1.8 | -1%[15.4 µM]
CCNc1nc(=S)nc(NC(C)C)[nH]1 | 0.2% | -14 | -27 | 6% | -11% | 3.1 | -22%
O=S(=O)(N/N=C\C=C\c1ccccc1)c1ccccc1 | -0.1% | . | 1 | -2% | . | . | -9%
O=C(CCc1nnc(CCCCc2ccccc2)o1)NCCn1cccn1 | 0.9% | -10 | -8 | -17% | 23% | -5.8 | -9%
Cc1cc(C)nc(NNS(=O)(=O)c2c(C)cc(C(C)(C)C)cc2C)n1 | -3.7% | 5 | -22 | 6% | . | . | 8%
COc1ccc(/C=N/NC(=O)c2cccc(S(=O)(=O)N3CCCC3)c2)cc1O | -2.1% | -17 | -3 | -1% | . | . | 0%
COc1cc(OC)c(OC)cc1CN(C)C(c1ccccc1)c1nnnn1-c1ccccc1C (stereo not given) | -5.6% | -15 | -1 | 9% | -21% | 0.0 | 20%
CCOC(=O)C1=NN(C(C)=O)C2(CC(=O)N(c3ccc(C)c(C)c3)C2=O)C1 (stereo not given) | ? | -14 | -10 | -4% | 1% | . | -5%[15.4 µM]

(more compounds)
SMILES | ClpP mod | TRPV1 PAM | D2 PAM | gsp antag | Sfp PPTase inh | Menin MLL FP FL | gsp agonist
Cc1ccc(C)c(NC(=O)C(NCC(C)(C)N2CCOCC2)c2ccccc2)c1 (stereo not given) | -5.2% | -1 | -5 | -20% | 4% | -2.6 | -69%[15.4 µM]
CC(=O)Nc1ccc(SCC(=O)N2CCN(S(=O)(=O)c3ccccc3)CC2)cc1 | . | -19 | 0 | 1% | 8% | -0.1 | 1%
O=C(NC1C2CC3CC(C2)CC1C3)c1ccc(Br)o1 (stereo not given) | . | -15 | -10 | -3% | 7% | 3.2 | -21%[15.4 µM]
CCCN(CC(=O)Nc1ccccc1C)C(=O)c1ccc(OCC(=O)N2CCOCC2)c(OCC)c1 | 0.7% | . | 1 | -3% | . | . | -30%[inhibitor]
CN(CCc1ccccn1)C(=O)CCC1CCCN(C(=O)c2n[nH]c3c2CCCC3)C1 (stereo not given) | . | 1 | 2 | 9% | 9% | -0.4 | -12%
COC(=O)[C@@H]1[C@@H](C)N(Cc2ccccc2)C(=O)N[C@H]1c1ccccc1 | -4.1% | . | -5 | 2% | 1% | 5.1[11.7 µM] | -9%
CCN1CCN(C(c2cccs2)C(C)NC(=O)c2ccccc2F)CC1 (stereo not given) | -0.4% | -7 | -2 | 7% | 13% | -5.3 | 1%
Cc1ccc(OCCN2CCN(c3nc(NCc4ccco4)c4ccccc4n3)CC2)cc1 | -2.0% | -8 | -35 | 0% | -20% | -5.4 | 16%
Clc1cccc(-c2nc3nc4ccccc4nc3n2Cc2ccco2)c1 | ? | -10 | -16 | ? | ? | 4.3 | -7%
c1ccc(CCn2c3ccccc3c3nnc(SCc4ccc5nonc5c4)nc32)cc1 | -1.5% | 8 | -6 | -4% | -13% | 3.1 | -47%[inhibitor]
O=C(CCC(=O)Nc1ccccc1Cl)N/N=C1\CCCc2ccccc21 | -21% | -24 | -8 | -1% | ? | 0.4 | -27%
O=[N+]([O-])c1cccc(S(=O)(=O)N/N=C/c2ccc(O)cc2)c1 | . | 20 | -3 | -7% | -19% | -3.6 | 9%[15.4 µM]

Continued.
SMILES | ClpP mod | TRPV1 PAM | D2 PAM | gsp antag | Sfp PPTase inh | Menin MLL FP FL | gsp agonist
Cc1cccc(N(CC(=O)NC2CCCC2)C(=O)c2c(C)noc2C)c1 | -2.2% | 0 | -4 | -7% | 19% | 1.7 | 1%
CSc1ccccc1-n1nnnc1SCc1ccccc1 | 1.1% | 10 | -9 | -18% | ? | -0.3 | -3%
CC(=O)c1cccc(NC(=O)COc2ccc(S(=O)(=O)N3CCCCC3)cc2)c1 | -5.6% | -19 | -9 | -15% | -2% | -5.5 | -63%[inhibitor]
c1ccc(-c2cc3ncccc3cn2)cc1 | 3.9% | 8 | -9 | -3% | . | . | -21%
NS(=O)(=O)c1ccc(CCNC(=O)C(=O)c2cn(CC(=O)N3CCCC3)c3ccccc23)cc1 | -2.2% | 1 | -3 | 1% | 3% | -3.7 | -31%[inhibitor]
COc1ccccc1CCC(=O)OCC(=O)N1c2ccccc2NC(=O)C1(C)C | -13% | 2 | 5 | 12% | . | . | -17%
CCCCCOC(=O)C1C2C=CC3(CN(c4ccccc4C)C(=O)C13)O2 (stereo not given) | 0.1% | 10 | -7 | 13% | 8% | -2.1 | -27%
Cc1oc2c(c(C)cc3oc(=O)c(CC(=O)NCCCO)c(C)c32)c1C | 3.8% | 2 | -7 | -3% | 6% | -4.2 | -1%
Cc1cc(C)cc(OCC(O)CN2CCC(CN3C(=O)c4cccc5cccc(c45)C3=O)CC2)c1 (stereo not given) | -19% | -1 | -33 | -4% | -1% | ? | -36%[inhibitor]
Cc1cc(C(=O)Nc2c(C)nn(Cc3ccc(F)cc3)c2C)on1 | -1.2% | -3 | -2 | 6% | 13% | 1.4 | 19%
Cc1cccc(NC(=O)c2cc3c([nH]c4ccccc43)c(C)n2)c1C | -15% | 12 | -4 | 12% | -7% | 1.5 | -3%[15.4 µM]
Cc1c(-c2ccccc2)c(-c2ccc(OCCN(C)C)cc2)n2ccccc12 | ? | . | 24 | 1% | . | . | ?

(list continues)
SMILES | ClpP mod | TRPV1 PAM | D2 PAM | gsp antag | Sfp PPTase inh | Menin MLL FP FL | gsp agonist
COc1ccc(C2SCC(=O)N2Cc2ccccc2)cc1 (stereo not given) | 1.3% | 2 | 27 | 9% | 3% | -0.5 | -82%
Cc1cc(=O)[nH]c(N/N=C/C(C)c2ccccc2)n1 (stereo not given) | . | 11 | -5 | 5% | ? | -1.8 | -1%[15.4 µM]
Cc1cc(S(=O)(=O)NC2CCCCC2)ccc1-n1cnnn1 | . | -6 | -6 | 6% | 2% | 0.3 | -4%[15.4 µM]
C#C[C@]1(O)CCC2C3CCC4=Cc5oncc5CC4(C)C3CCC21C (stereo not given in full) | 1.3% | . | 4 | -29% | . | . | .
CCOc1ccc(OCCn2ccnc2)cc1 | 1.3% | 2 | -5 | 3% | ? | -2.5 | 2%[15.4 µM]
O=C(COc1ccccc1Cl)Nc1ccc(N2CCN(C(=O)c3ccccc3)CC2)cc1 | 0.3% | 2 | 6 | ? | -11% | . | ?
N#Cc1c(-c2ccccc2)cc(-c2ccccc2)nc1SCCC(=O)O | 0.7% | ? | -10 | -19% | 45µM* | -3.0 | -2%[15.4 µM]
Cc1ccc(-n2nc(C)c3c2OC(N)=C(C#N)C3c2cccs2)cc1 (stereo not given) | 1.8% | 12 | -4 | -9% | 6% | 1.7 | 11%
Cc1cccc(C)c1NC(=O)CN(C)CC(=O)N1CC(=O)Nc2ccccc21 | -0.3% | . | -27 | 1% | . | . | 0%[15.4 µM]
CCCNC(=O)CC(NS(=O)(=O)c1ccc(NC(C)=O)cc1)C(C)C (stereo not given) | -25% | -5 | -1 | 14% | 23% | 1.0 | 12%[15.4 µM]
O=C(CCNC(=O)c1ccc([N+](=O)[O-])cc1)Nc1ccccc1N1CCOCC1 | 1.5% | -1 | -1 | 3% | 4% | -8.5 | -3%
COc1ccc(/C(O)=C2/C(=O)C(=O)N(CCCN3CCOCC3)C2c2ccc(N(C)C)cc2)cc1 (stereo not given) | -5.5% | -3 | -7 | 4% | 11% | 4.9 | -22%

(cont.)
SMILES | ClpP mod | TRPV1 PAM | D2 PAM | gsp antag | Sfp PPTase inh | Menin MLL FP FL | gsp agonist
COc1ccc(C(=O)C[n+]2cc(Br)cc3ccccc32)cc1[N+](=O)[O-] | -8.0% | 2 | -8 | -11% | 4% | 3.0 | -2%
Cc1ccc(NC(c2ccccc2)c2nc3ccccc3[nH]c2=O)cc1 (stereo not given) | 1.1% | 4 | -8 | -21% | 22% | -1.0 | -7%
COc1cc(/C=N\NC(=O)c2cccnc2)ccc1OC(=O)c1ccccc1Cl | 35% | 2 | 8 | ? | 0% | 3.8 | 3%
COc1ccc(CCNC(=O)C23CCC(C)(C(=O)C2=O)C3(C)C)cc1OC (stereo not given) | . | ? | -3 | 0% | 15% | -1.8 | ?
CC(C)c1ccccc1-n1cc[nH]c1=S | 0.1% | 14 | -11 | 10% | ? | 11 | -33%[inhibitor]
COc1ccccc1N1CCN(/N=C/c2cccc(OC)c2O)CC1 | 0.5% | 1 | -6 | 1% | -8% | -4.1 | -38%[inhibitor]
Cn1cc(/C=N/n2cnc3sc4c(c3c2=O)CCCC4)c2ccccc21 | -2.0% | -1 | -8 | -4% | 1% | 6.8 | 2%
Clc1cccc(CN2CCCCCC2)c1 | 0.3% | 2 | -39 | 3% | 0% | 2.2 | ?
CC(=O)CCc1ccc(OCCCCn2cncn2)cc1 | -1.1% | -15 | -9 | -2% | -6% | 0.3 | 9%
Cc1nc(NC(=O)C2CCCCC2)sc1C | -1.6% | -42 | 1 | 8% | -2% | 0.9 | 0%
O=c1oc(-c2cccs2)nc2ccc(Cl)cc12 | ? | 13 | -7 | -18% | 16% | -4.0 | ?
Cn1c(=O)[nH]c(=O)c2c1nc(SCC(O)CO)n2CCCc1ccccc1 (stereo not given) | 1.6% | -4 | -8 | 17% | 10% | -1.7 | 17%

Look-ups from the entries so far:
D2 PAM, `Cc1ccc(-n2nc(C)c3c2OC(N)=C(C#N)C3c2cccs2)cc1` (stereo not given) stands at -4
ClpP mod, `CCNc1nc(=S)nc(NC(C)C)[nH]1` stands at 0.2%
